VACV Venus inh = vaccinia inhibition (Venus reporter); Potency, µM (titrated, usually from 36.5 µM), inactives show at the highest dose activity change, negative = inhibition, hits mostly inhibitors; hit rate 0.46% among 330,000; AID 720580; Vaccinia virus Venus reporter expression, fluorescence; active means well fitted inhibition curve with a large enough effect; inconclusive means small, poorly fitted or top-dose-only effect; inactive means no such curve, though single readings can be large or run the other way; tested in A549 cells; also: nearly all actives have a fitted effect of over 30% in size; inactives centre near -10
VACV mCherry inh = vaccinia inhibition (mCherry reporter) | Vaccinia virus mCherry reporter infection, fluorescence; about a quarter of the inactives have no number | Potency, µM (titrated, usually from 36.5 µM), for the others: at the highest dose activity change, negative = inhibition, hits mostly inhibitors | hit rate 0.63% among 310,000 | AID 720579; active = well fitted inhibition curve with a large enough effect; inconclusive = small, poorly fitted or top-dose-only effect; inactive = no such curve, though single readings can be large or run the other way; tested in A549 cells; also: nearly all actives have a fitted effect of over 35% in size; inactives centre near -10
Starred values were filed as active, the others as inactive; i = inactive; ? = inconclusive; / = not tested or not shown; & = joins results of further samples; [ ] = dose if it differs, or a comment. % is scaled to controls: 0 for no effect and ±100 for the full control effect; potency is read from the fitted curve at half-maximal effect.

SMILES	VACV Venus inh	VACV mCherry inh
CCn1c2ccc(C)cc2c2nnc(NN)nc21	-22.9%	-11.5%
CN(C(=O)COC(=O)c1ccccc1NCCO)C1CCS(=O)(=O)C1 (stereo unspecified)	-4.1%	i
Cc1ccc(SCCC(=O)Nc2cc(C)on2)cc1	-16.1%	i
Cc1cnc(C(=O)OC(C)C(=O)Nc2cccc3ccccc23)cn1 (stereo unspecified)	-4.8%	-27.2%
Cc1ccc(-n2ncc3c(=O)n(CC#N)cnc32)cc1	-5.2%	i
COc1cc([N+](=O)[O-])c2ncccc2c1[N+](=O)[O-]	13.1%	-3.4%
COc1cc(-n2c(=O)c3ccccc3n(Cc3ccccc3)c2=O)cc(OC)c1OC	-3.0%	-17.4%
CCCCN1C(=O)C(=O)NC[C@@H]1C(C)O (stereo partly specified)	2.7%	-14.9%
CCCCn1c(SCC(=O)N(C)C)nnc1-c1ccncc1	-7.3%	-14.3%
Cc1cc(Cl)cc(Cl)c1CNc1c([N+](=O)[O-])c(=O)oc2ccccc12	-7.4%	-20.6%
CSc1nnc(C2CCCN(CC(=O)Nc3ccccc3N3CCOCC3)C2)n1C(C)C (stereo unspecified)	4.5%	-2.3%
COc1ccc(Cn2c(O)c(C=Nc3ccc(OC)cc3)c3ccccc3c2=O)cc1	-11.2%	-13.9%
Cc1cccc(C)c1NC(=O)CN1N=NC2C(=O)N(c3cccc(Cl)c3)C(=O)C21 (stereo unspecified)	10.0%	i
CC1CCCCc2nc3c(c(=O)n21)CCCC3 (stereo unspecified)	3.5%	4.4%
O=C(CSC1=NCCS1)c1ccc(Cl)cc1	-16.7%	i

The list goes on, starting with the last five of the part before.
SMILES	VACV Venus inh	VACV mCherry inh
CSc1nnc(C2CCCN(CC(=O)Nc3ccccc3N3CCOCC3)C2)n1C(C)C (stereo unspecified)	4.5%	-2.3%
COc1ccc(Cn2c(O)c(C=Nc3ccc(OC)cc3)c3ccccc3c2=O)cc1	-11.2%	-13.9%
Cc1cccc(C)c1NC(=O)CN1N=NC2C(=O)N(c3cccc(Cl)c3)C(=O)C21 (stereo unspecified)	10.0%	i
CC1CCCCc2nc3c(c(=O)n21)CCCC3 (stereo unspecified)	3.5%	4.4%
O=C(CSC1=NCCS1)c1ccc(Cl)cc1	-16.7%	i
Cc1cccc(C)c1OCc1cc(C(=O)N2CC3C[C@@H]4CC2C[C@H](C3)C4)no1	-15.8%	-18.4%
COC(=O)c1sc(S(=O)(=O)N2CCCCC2C(=O)O)c(C(=O)OC)c1C (stereo unspecified)	0.2%	-16.2%
O=C(NCc1ccccc1)C1c2ccccc2OCC(=O)N1CCc1c[nH]c2ccccc12 (stereo unspecified)	10.9%	31.4%[activator]
COC(=O)Cc1ccc(NC(=S)NCCSc2ccc(Cl)cc2)cc1	-15.8%	i
Cc1c(N2C(=O)CSC2c2ccc(F)cc2)c(=O)n(-c2ccccc2)n1C (stereo unspecified)	-9.3%	-7.3%
CCn1c2ccccc2c2cc(C3C(C#N)=C(N)Oc4n[nH]c(COC)c43)ccc21 (stereo unspecified)	-19.7%	-25.5%
COc1ccc(C(=O)Nc2ccc(N3CCN(C)CC3)cc2)cc1[N+](=O)[O-]	-0.3%	-2.2%
C=CCn1c(=O)c2ccccc2n2c(SCc3csc(-c4ccccc4)n3)nnc12	0.7%	-0.8%
Cc1cc(C)c2nc(N3CCC(C(=O)NCCCN4CC(C)CC(C)C4)CC3)sc2c1 (stereo unspecified)	-2.1%	i
Cc1cc(NC(=O)c2ccccc2-c2ccccc2)ccc1Br	-11.0%	-16.2%
Cc1cccc2[nH]c(CN(C)C(=O)CC3C(=O)NCCN3CC(C)(C)C)nc12 (stereo unspecified)	-2.8%	-8.0%
CCn1c(CC(=O)Nc2ccccc2)nnc1SCC(=O)NC1CCCC1	4.5%	2.9%
CC1=C(C(=O)N2CCOCC2)CC(CC(=O)NCCCCc2ccccc2)C(=O)N1Cc1ccc(F)cc1 (stereo unspecified)	-24.9%	-1.7%
Cc1cc(C)cc(NC(=O)Nc2cccs2)c1	-21.2%	-13.6%
COc1ccc2c(c1)C=C(C(=O)NCc1cc(Br)ccc1OC)CO2	-17.4%	-11.6%
COc1ccc(CNC(=O)C2CCN(S(=O)(=O)N3CCOCC3)CC2)cc1	-13.4%	-15.4%
COC(=O)c1ccccc1-c1cn(C)c2ccccc2c1=O	-12.7%	-15.0%
CCOC(=O)[C@]12CCCC=C1N(Cc1ccco1)C(=O)[C@H](CC(=O)NCCCCc1ccccc1)C2	-10.0%	-15.2%
CC1(C)CC(=O)c2cc(C(=O)NC3CCSC3=O)c(=O)n(-c3ccc(Cl)cc3)c2C1 (stereo unspecified)	-20.1%	-2.5%
Cn1c2ccccc2c2cc(C(=O)O)ccc21	-15.4%	i
Cc1ccc(S(=O)(=O)N(CC(=O)N/N=C/c2cccc3c2OCCO3)c2ccccc2F)cc1	-14.3%	-20.1%
c1ccc(-c2nnc(-c3ccco3)o2)cc1	-1.7%	-8.3%
C[N+](C)(C)CC/C=C1/c2ccccc2CSc2ccccc21	1.3%	3.3%
Cc1cccc(N2CCc3c2nc2ccccc2c3N)c1	-22.4%&-21.2%	?
CCc1nnc(NC(=O)C2CCCO2)s1 (stereo unspecified)	-3.1%	i
COc1ccc(-n2nc(C(=O)NCCCN3CCOCC3)c3ccccc3c2=O)c(OC)c1	-15.9%	-0.5%
CCNC(=O)C1(C)CCCN1C(=O)c1ccc(C#N)cc1 (stereo unspecified)	0.1%	-11.2%
CCCCC1=CC2=C(c3ccco3)C(=O)C(C)(OC(=O)c3ccc(OC)cc3)C(=O)C2=CN1CCCOC(C)C (stereo unspecified)	-21.3%	-24.6%
COc1cccc(/C=N/NC(=O)CC(=O)NCCc2ccc(OC)c(OC)c2)c1	-4.6%	-11.9%
CC(=O)N1c2c(cc(Br)cc2S(=O)(=O)Nc2ccc(OC(F)(F)F)cc2)CC1C (stereo unspecified)	-12.9%	-3.4%
O=C(CSc1ccccc1Cl)NC1CCCc2ccccc21 (stereo unspecified)	-3.6%	-6.6%
CCc1ccc(NC(=S)N2CCC(NC(=O)c3ccccc3)CC2)cc1	-13.8%	i
COc1cccc(NS(=O)(=O)c2ccc3c(c2)CCCN3C(C)=O)c1	-13.1%	-21.2%
CCOc1cc(C(=O)N2CCC(c3ccncc3)CC2)cc(OCC)c1OCC	-16.1%	-5.0%
CCN1CCN(S(=O)(=O)c2ccc(Cl)c(C(=O)Nc3ccc(OC(F)F)cc3)c2)CC1	-24.7%	-7.2%
CCCNC(=O)c1ccccc1NC(=O)c1ccccc1N(C)S(=O)(=O)c1ccccc1	-27.8%	?
COc1ccc(OCCSc2nnc(-c3cccnc3)n2N)cc1	-9.0%	-14.4%
Cc1cccc(-n2c(-c3cccs3)nc3ccccc3c2=O)c1	-6.1%	-8.6%
CC(=O)NC(CC(=O)Nc1cccc(S(=O)(=O)N2CCCCC2)c1)c1ccccc1 (stereo unspecified)	-8.9%	/
C=C1O[C@@](CO)(n2cnc3c(N)ncnc32)[C@H](O)[C@@H]1O	-10.1%[60.7 µM]	-0.5%[60.7 µM]
CCn1nc(C(=O)NCc2nnc3ccccn23)c2ccccc2c1=O	-19.2%	-17.8%
CC(=O)c1c(C)n(C)c2ccc(O)cc12	-2.8%	/
COc1ccc(CN2CCCN(CC(=O)Nc3ccc(Br)cc3F)S2(=O)=O)cc1	-1.8%	-8.0%
COc1cccc(/C=N/n2nnc3c(cnn3-c3ccccc3)c2=O)c1	6.1%	/
COc1ccc(/C=N/NC(=O)c2nnn(-c3nonc3N)c2-c2cccs2)cc1OC	-25.3%	i
CCOC(=O)C1=C(N)Oc2c(oc(CO)cc2=O)C1c1ccc(Cl)cc1 (stereo unspecified)	-15.4%	-4.6%
Cc1ccc(-c2nnn(CC(=O)Nc3ccccc3N3CCOCC3)n2)cc1	-21.1%	-18.6%
Cc1[nH]nc2c1C(c1ccoc1)C(C#N)=C(N)O2 (stereo unspecified)	-12.3%	i
Cn1c(N/N=C/c2cccs2)cc(=O)n(C)c1=O	-17.7%	-25.1%
CN(C)CCN(C(=O)C1CCN(S(=O)(=O)c2cccs2)CC1)c1nc2ccccc2s1	1.0%	-10.5%
COC(=O)c1ccc(CN2C[C@H](Sc3ccccn3)C[C@H]2C(=O)N(C)C)cc1	7.3%	-1.7%
O=C(NC1CCCN(Cc2ccc(Cl)cc2)C1)c1c(F)ccc(F)c1F (stereo unspecified)	-15.2%	-21.7%
CS(=O)(=O)N1CCc2cc(C(=O)N3CCN(c4ccc(F)cc4)CC3)ccc21	-7.7%	-0.6%
CCN1C(=O)C2C(C1=O)N1C(c3cccs3)C3C(=O)N(CC)C(=O)C3N1C2c1cccs1 (stereo unspecified)	-10.9%	/
Cc1cccnc1C(NC(=O)C1CCN(Cc2ccc3ccccc3n2)CC1)c1ccc(Cl)cc1 (stereo unspecified)	-13.8%	11.8%
CC(=O)c1ccc(NC(=O)c2cn3c4c(ccc(Cl)c4c2=O)OC(C)C3)cc1 (stereo unspecified)	2.3%	-8.0%
CC1Nc2ccccc2C(=O)N1NS(C)(=O)=O (stereo unspecified)	-8.1%	-11.0%
CCN1CCN(C(=O)CCc2nc3ccccc3n2-c2ccccc2)CC1	-23.2%	-25.4%
COc1cccc(/C=C/C(=O)OCC(=O)Nc2cc(S(=O)(=O)N3CCOCC3)ccc2C)c1	-0.2%	-11.1%
Cc1cc(NC(=O)CCC(=O)N(Cc2ccco2)C(C(=O)NC2CCCC2)c2ccccc2C)no1 (stereo unspecified)	-19.1%	?

Carrying on:
SMILES	VACV Venus inh	VACV mCherry inh
Cc1cccc(NC(=O)CSc2ccc3nnc(-c4cccnc4)n3n2)c1	-12.0%	i
O=S(=O)(c1ccc2nc(Nc3ccc(Br)cc3F)ccc2c1)N1CCCC1	-9.0%	-17.0%
CC(C)n1nccc1N(Cc1ccc(C#N)cc1)S(=O)(=O)c1ccccc1	6.4%	-12.3%
CCOC(=O)C(=O)N(C)c1c(CC)nc2c(OCc3ccc(OC)cc3)cccn12	-6.3%	i
Nc1nonc1-n1nnc(C(=O)N/N=C/c2cc(Br)ccc2O)c1CNc1ccccc1	-5.4%	-14.0%
CCCCN1C(=O)CN(C2CCCCCC2)C(=O)C1c1ccc(OC(C)C)c(OC)c1 (stereo unspecified)	-6.1%	-9.9%
CCOc1ccccc1CN1CCNC(=O)C1CC(=O)NCc1ccccn1 (stereo unspecified)	-9.2%	-27.9%
COc1ccccc1NC(=O)Cc1nnc(SCC(=O)Nc2nccs2)n1C	6.5%	i
Cc1cc(C(=O)NCCc2ccc(Cl)cc2)no1	-13.8%	-14.6%
CCCN(CC(=O)Nc1ccccc1OC)C(=O)CN1C(=O)NC(C)(C)C1=O	-4.5%	-0.2%
Cc1c(Br)c(=O)oc2c(C)c(O)ccc12	-7.7%	-14.0%
CCn1c(SCC(=O)Nc2cccc(C(C)=O)c2)nnc1C(C)C	-1.4%	-8.0%
CC(=O)c1ccc(Nc2nc(-c3sc(C)nc3C)cs2)cc1	?	?
C[C@H](NC(=O)c1ccco1)C(=O)Nc1ccc2c(c1)OCO2	-2.9%	-29.2%
CCCN(CC(=O)Nc1ccccc1C)C(=O)C1CCN(S(=O)(=O)c2ccc(C)c(C)c2)CC1	?	i

Retrieved one by one from the entries so far (4):
SMILES	VACV Venus inh	VACV mCherry inh
O=S(=O)(c1ccc2nc(Nc3ccc(Br)cc3F)ccc2c1)N1CCCC1	-9.0%	-17.0%
C[C@H](NC(=O)c1ccco1)C(=O)Nc1ccc2c(c1)OCO2	-2.9%	-29.2%
COc1ccccc1NC(=O)Cc1nnc(SCC(=O)Nc2nccs2)n1C	6.5%	i
Cc1c(Br)c(=O)oc2c(C)c(O)ccc12	-7.7%	-14.0%

Remaining list, next part.
SMILES	VACV Venus inh	VACV mCherry inh
CCOc1ccc(NC(=O)c2cc3ccccc3cc2O)cc1	-18.8%	-11.9%
COc1ccc([N+](=O)[O-])cc1NC(=O)c1ccc(N2C(=O)CCC2=O)cc1	-13.6%	8.8%
COCCN(Cc1ccccc1)C(=S)Nc1ccc(OC(F)F)cc1	8.3%	-9.4%
CCOC(=O)C1(CCCc2ccccc2)CCN(C(=O)c2ocnc2C)CC1	-7.3%	-12.0%
CCOC(=O)N1CCC(NCCNC(=O)c2cccs2)CC1	-10.0%	i
Cn1c(=O)oc2cc(S(=O)(=O)CCC(=O)NCc3ccc(Cl)cc3)ccc21	-4.8%	-4.2%
O=C(CCCCCn1c(=S)[nH]c2ccc(N3CCOCC3)cc2c1=O)NCc1ccc(Cl)cc1	1.4%	i
CC(=O)OC1(c2ccccc2)CCN(C)C2CCCCC21 (stereo unspecified)	-12.9%	-12.6%
c1cnc2c(Oc3ncnc4sccc34)cccc2c1	-16.5%	?
Cc1cc(-c2nc(C)c(-c3nnc(SCC(=O)Nc4cc(Cl)cc(Cl)c4)n3C)s2)no1	-3.1%	-13.9%
COc1cccc(NC(=S)Nc2cc(C)cc(C)n2)c1	-4.3%	-4.7%
CCc1ccc2c(c1)C(C)=CC(C)(C)N2	10.1%	/
COCCn1c(C)cc(C(=O)CN2C(=O)NC3(CCCCCC3)C2=O)c1C	-11.0%	i
COc1ccc(OCC(=O)Nc2ccc3c(c2)nc(CCNC(=O)c2ccco2)n3C)cc1	-9.9%	-4.4%

Part of the list above, with each value named:
molecule: CC(=O)c1ccc(Nc2nc(-c3sc(C)nc3C)cs2)cc1
  VACV Venus inh: ?; VACV mCherry inh: ?
molecule: C[C@H](NC(=O)c1ccco1)C(=O)Nc1ccc2c(c1)OCO2
  VACV Venus inh: -2.9%; VACV mCherry inh: -29.2%
